MLL AF4-AF9 inh: inhibitors of human MLL-AF4/AF9 interaction. 350,000 compounds, 0.47% hits. inhibition, % at 10 µM. P42568. AlphaScreen, biotin-AF4 peptide binding to FLAG-AF9;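 active means every replicate reaching a set inhibition limit, whatever the replicate mean, cut at about 25% in these data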;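 further: 0% = plate neutral control median and 100% = total signal loss; the record names both 10 and 1 µM as test concentration; the first replicate is given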
Target sequence (P42568 whole entry, looked up): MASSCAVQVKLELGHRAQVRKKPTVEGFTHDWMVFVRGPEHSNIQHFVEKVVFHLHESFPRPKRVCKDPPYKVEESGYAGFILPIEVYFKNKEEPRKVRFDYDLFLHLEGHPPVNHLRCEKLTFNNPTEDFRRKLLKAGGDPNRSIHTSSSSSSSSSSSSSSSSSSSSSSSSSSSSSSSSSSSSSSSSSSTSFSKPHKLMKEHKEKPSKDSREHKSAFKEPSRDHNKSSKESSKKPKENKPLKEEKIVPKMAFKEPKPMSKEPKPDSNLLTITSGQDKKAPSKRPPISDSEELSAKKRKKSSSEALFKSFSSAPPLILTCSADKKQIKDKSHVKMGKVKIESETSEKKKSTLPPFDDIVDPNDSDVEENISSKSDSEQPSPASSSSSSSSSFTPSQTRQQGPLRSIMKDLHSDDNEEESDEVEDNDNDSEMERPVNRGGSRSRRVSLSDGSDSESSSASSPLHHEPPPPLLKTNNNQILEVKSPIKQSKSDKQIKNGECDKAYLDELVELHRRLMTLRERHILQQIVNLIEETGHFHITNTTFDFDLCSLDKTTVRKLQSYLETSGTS
* hit, by the source's call. This is a subset (hit frequency here may not be typical).

SMILES | MLL AF4-AF9 inh
C[C@@H]1CN([C@@H](C)CO)S(=O)(=O)c2ccc(C3=CCCC3)cc2O[C@@H]1CN(C)Cc1ccccc1 | 8.7
CC(=O)[C@H]1CC[C@H]2[C@@H]3CC=C4C[C@@H](OS(=O)(=O)O)CC[C@]4(C)[C@H]3CC[C@]12C | -3.6
CC(C)(C)c1cc(NC(=O)C2(C)CCN2C(=O)c2ccccc2CCc2ccccc2)no1 (centres undefined) | 0.8
COc1ccc(C#Cc2ccc([C@H]3[C@H]4CN(C(=O)c5cccnc5)CC(=O)N4[C@H]3CO)cc2)cc1 | 14
COc1cccc(NC(=O)N[C@H]2C=C[C@@H](CC(=O)N3CCCCC3)O[C@@H]2CO)c1 | -0.9
COC(=O)c1cc2c(c3c4cc(F)ccc4n(S(=O)(=O)c4ccccc4)c13)C(=O)N(Cc1ccco1)C2 | 0.8
COc1ccc(S(=O)(=O)N[C@@H]2CC[C@H](CC(=O)O)O[C@@H]2CO)cc1 | -0.7
CC(=O)N1CCN(Cc2cc(=O)oc3cc(C)c(C)cc23)CC1 | -1.2
COC(=O)C(CC#Cc1ccc2c(c1)[C@]1(C(=O)N2)[C@H](c2ccc(OCCO)cc2)N2[C@H](c3ccccc3)[C@H](c3ccccc3)OC(=O)[C@H]2[C@@H]1C(=O)Nc1nc2ccccc2s1)C(=O)OC | -1.6
COc1ccc(CN(C)C[C@@H]2Oc3c(NC(=O)Nc4ccc(F)cc4)cccc3C(=O)N([C@@H](C)CO)C[C@H]2C)cc1 | 3.3
O=C(Cc1ccccc1)N[C@@H]1C=C[C@H](CC(=O)N2CCCCC2)O[C@@H]1CO | -14
C[C@@H]1CN([C@@H](C)CO)C(=O)c2c(c3ccccc3n2C)-c2ccccc2CO[C@H]1CN(C)S(=O)(=O)c1ccsc1 | -13
COCC(=O)Nc1ccc2c(c1)[C@@H]1C[C@@H](CC(=O)NCc3ccc(OC)cc3)O[C@H](CO)[C@@H]1O2 | -2.3
CO[C@H]1CN(C)C(=O)c2cc(NC(=O)c3cccc(F)c3)ccc2OC[C@H](C)NC[C@H]1C | -7.1
O=C(Nc1ccccc1)c1cc(C2CCCCN2C(=O)c2ccccc2)on1 (centres undefined) | -0.7
COc1ccc(NC(=O)Nc2ccc3c(c2)C(=O)N([C@H](C)CO)C[C@H](C)[C@@H](CN(C)Cc2ccc(Cl)c(Cl)c2)O3)cc1 | 0.5
CC(C)CC#Cc1cnc2c(c1)C(=O)N([C@H](C)CO)C[C@@H](C)[C@@H](CN(C)Cc1cccc(F)c1)O2 | 4.6
CN(C)CCCNC(=O)C[C@@H]1CC[C@@H]2[C@H](COc3ccc(NC(=O)c4ccccc4F)cc3C(=O)N2C)O1 | 0.4
C[C@H]1CCCCO[C@H](CN(C)C(=O)NC2CCCCC2)[C@@H](C)CN([C@@H](C)CO)C(=O)c2cc(NC(=O)Nc3ccccc3)ccc2O1 | 0.7
COc1ccc(-c2ccc([C@H]3[C@H]4CN(C(=O)C5CCC5)CC(=O)N4[C@H]3CO)cc2)cc1 | -0.5
COc1cccc(CN2[C@@H](CO)[C@@H](c3ccccc3)C23CN(C(=O)C2CCCC2)C3)c1 | 4.8
CO[C@H]1CC[C@H]2CCN(C)C(=O)CC3(CCCCC3)CN(C)C(=O)c3cccc(C#N)c3OC[C@H]1O2 | 2.2
N#C[C@@H]1[C@@H](c2ccc(-c3cccc(F)c3)cc2)[C@@H](CO)N1C(=O)c1cccnc1 | 1.4
COc1ccccc1NC(=O)N1C[C@@H](O)COC[C@H]2O[C@H](CC(=O)NCc3ccccc3)CC[C@@H]21 | -5.5
COC(=O)[C@]12C[C@H](CC(=O)N3CCSCC3)C(=O)N(Cc3ccc4c(c3)OCO4)C1=C[C@H](C(C)(C)C)O[C@@H]2C | 5.8
C[C@H](CO)N1C[C@H](C)[C@@H](CN(C)Cc2ccc(-c3ccccc3)cc2)Oc2ccc(NC(=O)NC3CCCCC3)cc2C1=O | 0.6
CCC(=O)N1C[C@@H](C)[C@@H](OC)CN(C)C(=O)c2cc(NC(=O)c3ccccc3)ccc2OC[C@H]1C | 2.3
CNC(=O)C[C@H]1CC[C@@H]2[C@H](COc3ccc(NS(=O)(=O)c4cccc(F)c4)cc3C(=O)N2C)O1 | -0.6
COCCNc1nc(NCCCN2CCCC2=O)c2sccc2n1 | 0.7
COc1ccc(-c2cn(CC[C@@H]3CC[C@H](NC(=O)NC(C)C)[C@@H](CO)O3)nn2)cc1 | 0.3
CN(C)C(=O)C[C@H]1CC[C@H]2[C@@H](COc3ccc(NC(=O)c4ccc(F)c(F)c4)cc3C(=O)N2C)O1 | 0.0
COCC(=O)N1CC2(C1)[C@H](c1ccc(-c3cccc(F)c3)cc1)[C@@H](CO)N2C(=O)C1CC1 | -1.7
COc1ccc(OC)c(CNC(=O)c2[nH]c(C(F)(F)F)nc2-c2ccccc2)c1 | 0.6
Cc1cccc(-c2ccc([C@H]3[C@H](CO)N4C(=O)CN(C(=O)Cc5ccccn5)C[C@@H]34)cc2)c1 | -0.5
O=C(C[C@H]1CC[C@H](NS(=O)(=O)c2ccc(F)cc2)[C@H](CO)O1)NCc1ccncn1 | -0.7
CCC(=O)N(C)C[C@@H]1Oc2ncc(C#C[C@H](C)O)cc2C(=O)N([C@H](C)CO)C[C@H]1C | -2.8
COCC#Cc1cnc2c(c1)C(=O)N([C@H](C)CO)C[C@H](C)[C@H](CN(C)Cc1ccc3c(c1)OCO3)O2 | -1.9
CN(C)C(=O)C[C@@H]1CC[C@@H]2[C@H](COC[C@@H](O)CN2CC2CCCCC2)O1 | -4.1
C[C@@H]1CN([C@@H](C)CO)C(=O)c2cccc(NC(=O)c3ccc(-c4nccs4)cc3)c2O[C@H]1CN(C)Cc1ccc2c(c1)OCO2 | -5.7
C[C@@H]1CCCCO[C@H](CN(C)C(=O)Nc2ccc(F)cc2)[C@H](C)CN([C@@H](C)CO)C(=O)c2cc(NC(=O)Nc3ccccc3)ccc2O1 | 1.7
Cc1ccccc1-c1ccc([C@H]2[C@@H](CO)N3CCCCN(CC4CC4)C[C@H]23)cc1 | 10
C[C@@H]1CN([C@H](C)CO)C(=O)c2cc(C#Cc3ccc(F)cc3)cnc2O[C@H]1CN(C)C(=O)c1ccccc1F | -0.4
C[C@@H]1CN([C@H](C)CO)C(=O)c2cc(NC(=O)Nc3cccc4ccccc34)ccc2O[C@@H]1CN(C)Cc1ccccc1 | 4.3
CCNC(=O)C1CCCN(C(=O)c2cccs2)CC1 (centres undefined) | 1.1
CCCC(=O)N1CC2(CCN(S(C)(=O)=O)CC2)c2c([nH]c3cc(OC)ccc23)[C@H]1CO | -0.3
Cc1ccc(S(=O)(=O)NCC[C@H]2CC[C@@H](NC(=O)Nc3ccccc3F)[C@H](CO)O2)cc1 | 0.2
COc1ccccc1NC(=O)N1CC(=O)N2[C@H](C1)[C@H](c1ccc(C#Cc3ccc(F)cc3)cc1)[C@@H]2CO | -2.0
COc1cc(CN2[C@@H]3CNC[C@H]2C3c2ccc(-c3cccc(C)c3)cc2)cc(OC)c1 (some centres undefined) | 2.7
C[C@@H]1CCCCO[C@H](CN(C)Cc2ccncc2)[C@@H](C)CN([C@@H](C)CO)C(=O)c2cc(NS(=O)(=O)c3cn(C)cn3)ccc2O1 | -4.0
O=C(CC1CC1)N1CC(=O)N2[C@@H](CO)[C@@H](c3ccc(-c4cccnc4)cc3)[C@@H]2C1 | -1.3
CCS(=O)(=O)Nc1ccc2c(c1)C(=O)N(C)C[C@H](OC)[C@H](C)CN(C(=O)c1ccc3c(c1)OCO3)[C@@H](C)CO2 | 1.3
COc1cccc(-c2ccc([C@H]3[C@H](CO)N4CCCCN(S(=O)(=O)c5cccs5)C[C@@H]34)cc2)c1 | 2.1
CCC(=O)N1C[C@H](C)[C@@H](OC)CN(C)C(=O)c2ccc(NC(=O)c3ccc(F)cc3)cc2OC[C@@H]1C | -1.4
C[C@H]1CN([C@@H](C)CO)S(=O)(=O)c2ccc(-c3cccnc3)cc2O[C@@H]1CN(C)C(=O)CN(C)C | 0.3
O=C(C[C@H]1CC[C@H]2[C@@H](COC[C@@H](O)CN2C(=O)Nc2ccc(Cl)cc2)O1)NCCc1ccncc1 | -0.9
O=C(CN1CCOCC1)N1[C@@H](CO)[C@@H]2c3ccccc3NC[C@@H]21 | -0.4
CO[C@@H](CN(C)S(=O)(=O)c1ccc(Cl)cc1)[C@H](C)CN([C@@H](C)CO)S(=O)(=O)c1cccc(Cl)c1 | -1.4
COc1cccc(S(=O)(=O)Nc2ccc3c(c2)[C@@H]2C[C@H](CC(=O)NCc4cccc(F)c4)O[C@@H](CO)[C@@H]2O3)c1 | 0.9
CCC(=O)Nc1ccc2c(c1)C(=O)N(C)C[C@H](OC)[C@H](C)CN(C(=O)Cc1cccnc1)[C@H](C)CO2 | 1.4
O=C(Cc1ccccc1)N1CC(=O)N2[C@H](CO)[C@@H](c3ccc(C4=CCCC4)cc3)[C@@H]2C1 | 0.6

Seven successive records already listed, for reference:
SMILES | MLL AF4-AF9 inh
CCS(=O)(=O)Nc1ccc2c(c1)C(=O)N(C)C[C@H](OC)[C@H](C)CN(C(=O)c1ccc3c(c1)OCO3)[C@@H](C)CO2 | 1.3
COc1cccc(-c2ccc([C@H]3[C@H](CO)N4CCCCN(S(=O)(=O)c5cccs5)C[C@@H]34)cc2)c1 | 2.1
CCC(=O)N1C[C@H](C)[C@@H](OC)CN(C)C(=O)c2ccc(NC(=O)c3ccc(F)cc3)cc2OC[C@@H]1C | -1.4
C[C@H]1CN([C@@H](C)CO)S(=O)(=O)c2ccc(-c3cccnc3)cc2O[C@@H]1CN(C)C(=O)CN(C)C | 0.3
O=C(C[C@H]1CC[C@H]2[C@@H](COC[C@@H](O)CN2C(=O)Nc2ccc(Cl)cc2)O1)NCCc1ccncc1 | -0.9
O=C(CN1CCOCC1)N1[C@@H](CO)[C@@H]2c3ccccc3NC[C@@H]21 | -0.4
CO[C@@H](CN(C)S(=O)(=O)c1ccc(Cl)cc1)[C@H](C)CN([C@@H](C)CO)S(=O)(=O)c1cccc(Cl)c1 | -1.4

Next section
SMILES | MLL AF4-AF9 inh
Cc1ccc(S(=O)(=O)Nc2cccc3c2O[C@@H](CN(C)Cc2ccc(Oc4ccccc4)cc2)[C@H](C)CN([C@H](C)CO)C3=O)cc1 | 0.2
CSc1ccc(OC2(C)CCN(Cc3cc4ccccc4o3)C2)cc1 (centres undefined) | -1.5
C[C@@H]1CN([C@H](C)CO)C(=O)c2cccc(NC(=O)C3CCOCC3)c2O[C@@H]1CN(C)S(=O)(=O)c1ccc(Cl)cc1 | -3.1
Cc1ccc(N2CCN(C(=O)c3[nH]c(C(F)(F)F)nc3-c3ccccc3)CC2)cc1 | 2.3
COc1ccc2c3c([nH]c2c1)[C@H](CO)NCC31CN(S(=O)(=O)c2cccs2)C1 | 4.1
Cc1ccc(NC(=O)c2ncn(CCCNCCCN3CCCC3=O)n2)cc1C | -1.3
O=C(CC1CC1)N[C@H]1CC[C@@H](CCNS(=O)(=O)c2ccc(F)cc2)O[C@H]1CO | -2.7
CCC(=O)N1CCC2(CC1)CN(C(=O)c1cnccn1)[C@@H](CO)c1c2c2ccc(OC)cc2n1C | -11
COCC(=O)N(C)C[C@@H]1Oc2ncc(C#CC(C)(C)O)cc2C(=O)N([C@H](C)CO)C[C@H]1C | -4.2
COc1ccc(C[C@H]2CCn3cc(nn3)COC[C@@H](C(C)C)NC2=O)cc1 | -1.3
CO[C@@H]1CN(C)C(=O)c2ccc(NC(=O)Nc3cccc(F)c3)cc2OC[C@H](C)N(C(=O)Nc2c(C)noc2C)C[C@H]1C | 2.4
O=C(CC1CC1)Nc1ccc2c(c1)[C@@H]1C[C@@H](CC(=O)N3CCCCC3)O[C@H](CO)[C@@H]1O2 | -4.5
C[C@@H]1CN([C@H](C)CO)S(=O)(=O)c2ccc(C3=CCCC3)cc2O[C@@H]1CN(C)C(=O)c1ccncc1 | -0.7
C/C=C/c1ccc([C@H]2[C@@H](CO)N(C(=O)C3CC3)[C@@H]2CN(CC)C(C)=O)cc1 | 0.3
CO[C@H]1O[C@H](CO)[C@@H](OC(=O)Nc2ccccc2)[C@H](OC(=O)Nc2ccc3c(c2)OCO3)[C@@H]1OC(=O)Nc1ccc2c(c1)OCO2 | 27*
C[C@@H]1CN([C@H](C)CO)C(=O)c2cc(NC(=O)CCN3CCOCC3)ccc2O[C@H]1CN(C)Cc1ccc(-c2ccccc2)cc1 | 2.1
O=C(C[C@@H]1C=C[C@H](NC(=O)CN2CCOCC2)[C@@H](CO)O1)NCCc1ccccc1 | -0.6
N#C[C@@H]1[C@H](c2ccc(C#CC3CCCCC3)cc2)[C@@H](CO)N1S(=O)(=O)c1ccccc1 | 2.9
C[C@@H]1CCCCO[C@@H](CN(C)C(=O)Nc2cccc3ccccc23)[C@H](C)CN([C@H](C)CO)C(=O)c2cc(N(C)C)ccc2O1 | 22
O=S(=O)(N[C@H]1CC[C@H](CCn2cc(-c3cccc(F)c3)nn2)O[C@H]1CO)c1ccccc1 | -1.4
C[C@@H](O)C#Cc1ccc([C@@H]2[C@H]3CN(S(=O)(=O)Cc4ccccc4)CCCCN3[C@H]2CO)cc1 | -8.4
COc1ccc2c3c(n(C)c2c1)[C@@H](CO)N(C(=O)c1cccnc1)CC31CCN(S(C)(=O)=O)CC1 | -0.1
CCCN(C)C[C@@H]1Oc2ncc(-c3cccc(C(=O)N(C)C)c3)cc2C(=O)N([C@@H](C)CO)C[C@H]1C | -1.3
CCC(=O)Nc1ccc2c(c1)C(=O)N(C)C[C@@H](OC)[C@H](C)CN(C(=O)NC(C)C)[C@@H](C)CO2 | -1.2
CC1CCC(NC(=O)COC(=O)C2=NN(c3ccccc3)C(=O)CC2)CC1 (centres undefined) | 1.0
